HTT prom inh – Primary qHTS for Identification of Small Molecule Inhibitors of Huntingtin Promoter Activity. HEK293 HTT promoter firefly luciferase reporter (activity 0% = vehicle and -100% = no light), 24 h. 48,000 tested, 0.93% active. Potency, µM (doses to about 57.5 µM), for the others: top-dose activity change, negative = inhibition, hits mostly inhibitors; active = well fitted inhibition curve with a large enough effect; inconclusive = small, poorly fitted or top-dose-only effect; inactive = no such curve, though single readings can be large or run the other way; note: nearly all actives have a fitted effect of over 50% in size
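Firefly luciferase readout (Dual-Glo, 10 min RT) after 24 h, 37 °C compound exposure (final up to 57.5 uM) of HEK293 reporter cells cultured 24 h beforehand; PTC124 at 50 uM final as control inhibitor; activity scaled vehicle 0%, zero RLU -100%.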
PMP22 txn – Cell-based coincidence reporter assay to measure PMP22 gene transcription in S16 Pmp22-F2sN cells - Primary screen; S16 Pmp22-F2sN Schwann cells (luciferase reporters placed in the Pmp22 gene), FLuc/NLuc coincidence luminescence, 24 h; Potency, µM (titrated, usually from 57.5 µM), for inactives: at the highest dose activity change, negative = inhibition, hits mostly inhibitors; 43,000 tested, 2% active; active = clear falling dose curves in both reporters; inconclusive = both reporters move, but less clearly or upward; inactive = either reporter flat; the % is the NLuc reporter signal; note: % is set by controls: 0 for no effect and ±100 for the full control effect; some results filed as inactive show a strong effect at the top dose
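Rat S16 Pmp22-F2sN cells, 500-1,000/well in phenol red-free DMEM + 10% FBS, compound-treated 24 h (37C, 5% CO2). Luminescence: FLuc read, Stop&Glo added, NLuc read.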
* marks the source's active call; other numbers are inactive results; ? = inconclusive; . = not tested or not shown; & = joins results of further samples; [ ] = remark or other dose. Potency is the fitted concentration of half-maximal effect.

SMILES | HTT prom inh | PMP22 txn
CCCCC(CC)CNC(=O)Cc1ccc(-n2c(=O)[nH]c3ccccc3c2=O)cc1 (stereo not given) | ? | 3%
Cc1cc2c(cc1S(=O)(=O)N(C)CC(=O)Nc1ccc(C#N)cc1)OCC(=O)N2 | -19% | -3%
COc1ccc(NC(=O)C2CCCN(S(=O)(=O)c3ccc4c(c3)oc(=O)n4C)C2)c(OC)c1 (stereo not given) | ? | 7%
CCc1cccc(C)c1NC(=O)C1CCN(c2nn3c(=O)cc(C)nc3s2)CC1 | -12% | -26%
Cc1ccc(Cl)cc1N1CCN(C(=O)c2nn(C)c3c2CS(=O)(=O)c2ccccc2-3)CC1 | ? | ?
CCCn1c(=O)c2sccc2n2c(CCCC(=O)NC3CCCCC3)nnc12 | -12% | -8%
Cc1ccc2nc(-c3ccc(O)cc3)c(Nc3ccc4c(c3)OCCO4)n2c1 | 1% | ?
COCCCNC(=O)c1ccc2c(c1)N(Cc1ccccc1F)C(=O)c1ccccc1S2=O (stereo not given) | -16% | ?
Cc1ccc(CCNC(=O)Cn2ncc3c(=O)oc4ccccc4c32)cc1 | -18% | -22%
CC1(C)CC(=O)c2cc(-c3nc(-c4ccc(Br)cc4)cs3)c(=O)n(-c3ccccc3)c2C1 | -8% | -35%
CCOc1ccc(-n2c(SCC(=O)Nc3ccc(CC)cc3)nc3c(oc4ccccc43)c2=O)cc1 | -15% | -29%
O=C(NCc1nc2cccnc2n1Cc1ccc(F)cc1)c1ccccc1C(F)(F)F | -15% | -25%
CCc1cccc(C)c1NS(=O)(=O)c1c(C(=O)N2CCCCCC2)c(C)n(C)c1C | 0% | 1%
Cc1ccc(-n2ncc(C(=O)N3CCN(Cc4ccccc4)CC3)c2C2CCN(C(=O)OC(C)(C)C)CC2)c(C)c1 | -9% | ?
O=C(Nc1ccc(Cl)c(Cl)c1)N(Cc1c[nH]c2ccccc12)C1CCCCC1 | 47%[activator] | ?
CCC1CN(C(=O)Nc2cc(OC)cc(OC)c2)c2ccccc2S1 (stereo not given) | ? | -14%
CC(C)c1ccc2oc3nc(N)c(C(=O)O)cc3c(=O)c2c1 | 28%&28% | .
CCC(=O)N1CCc2cc(S(=O)(=O)N3CCN(c4ccccc4F)CC3)ccc21 | 2% | -4%
Cc1cccc(Cn2c(CN3CCC(C(=O)NCc4ccccc4Cl)CC3)cc3ccccc32)c1 | 11% | -22%
CC(=O)c1ccc(NC(=O)CN2C(=O)CN(C)C(=O)c3ccccc32)cc1 | 7% | -7%
CCOc1ccccc1NS(=O)(=O)c1ccc(-c2cnc(C3CC3)o2)cc1 | ? | ?
Cc1cccc(C)c1Nc1c(-c2ccccc2Cl)nc2cnccn12 | ? | ?
CN(C(=O)CSc1nncn2c1cc1occc12)c1ccccc1 | 5% | ?
COc1cc(Nc2nc3ccccc3c3nnc(C)n23)cc(OC)c1 | -15% | -6%
Cc1cccc(OCCCn2c(CCNC(=O)C(C)(C)C)nc3ccccc32)c1 | -3% | ?
SMILES | HTT prom inh | PMP22 txn
COc1cccc(NS(=O)(=O)c2ccc3[nH]cc(C(=O)N4CCCC4)c(=O)c3c2)c1 | -3% | -12%
CC(C)C(=O)Nc1cccc(C(=O)Nc2nnc(CC(C)(C)C)s2)c1 | ? | -12%
CCOc1ccc(-c2nonc2NC(=O)c2oc3ccc(F)cc3c2C)cc1 | ? | ?
CCOC(=O)c1ccccc1NC(=O)N1CCOc2ccc(Cl)cc21 | -27% | -31%
CC1CCN(C(=O)Cn2c(SCC(=O)Nc3ccc(F)cc3)nc3ccccc32)CC1 | -30% | -19%
CS(=O)(=O)N1CCc2cc(C(=O)N3CCN(c4ccccc4F)CC3)ccc21 | -25% | 6%
CCc1ccc(S(=O)(=O)c2c(C(=O)c3ccc(C)c(C)c3)cnc3ccccc23)cc1 | -10% | ?
Cc1ccccc1N1CCN(S(=O)(=O)c2ccccc2)CC1 | 9% | -5%
CCN(CC)C(=O)c1c(NC(=O)c2cccc(C)c2)sc2c1CCC(C)C2 (stereo not given) | ? | 4%
CCN(CC)CC(=O)OCC(=O)[C@@]1(O)CC[C@H]2[C@@H]3CCC4=CC(=O)CC[C@]4(C)[C@H]3[C@@H](O)C[C@@]21C | -5% | .
CCc1cccc(NC(=O)c2ccc(CN3C(=O)C(C)=C(c4ccc(OC)cc4)S3(=O)=O)cc2)c1 | ? | -8%
CCn1nc(C)c2c(-c3ccccc3)cc(=O)n(C(C)C(=O)NCc3ccccc3OC)c21 (stereo not given) | -29% | ?
O=C(Nc1ccccc1C(=O)OCc1cc(=O)n2nc(C3CC3)sc2n1)c1cccc(F)c1 | -2% | -11%
O=C(CSc1nc2c([nH]c3ccccc32)c(=O)n1-c1ccccc1)NCc1ccc(F)cc1 | -25% | ?
O=C(NCC12CC3CC(CC(C3)C1)C2)c1cc2nc(-c3ccccc3)cc(C(F)(F)F)n2n1 | -6% | ?
CCOc1ccc(N2CC(c3nc4ccccc4n3CCCCOc3ccc(OC)cc3)CC2=O)cc1 (stereo not given) | ? | ?
O=C1CN(C(=O)Cc2ccc(F)cc2)C(c2ccccc2)c2cc(Cl)ccc2N1 (stereo not given) | -28% | -9%
CCOC(=O)c1c(S(=O)(=O)NCC(=O)Nc2ccc(C(C)=O)cc2)c(C)n(C)c1C | 3% | 5%
Cc1cccc(C)c1NC(=O)CSc1ncc2c(n1)-c1ccc(Cl)cc1N(Cc1ccccc1)S2(=O)=O | ? | ?
Nc1ccc(S(N)(=O)=O)cc1 | -5%&-2% | .
Cc1ccc(NC(=O)CN2CCSc3ccc(S(=O)(=O)N4CCCC4)cc32)cc1C | ? | ?
COCCn1c(=N)c(C(=O)NCc2ccco2)cc2c(=O)n3cc(C)ccc3nc21 | -4% | -24%
CCc1c(-c2ccccc2)nc2ccccc2c1C(=O)NCc1ccc(C)cc1 | ? | ?
Cc1cccc(NC(=O)CSc2nc3ccccc3nc2N2CCCCC2)c1C | -9% | -19%
Cc1ccc2c(c1)C(=O)OC(C(=O)Nc1ncc(Cc3ccc(C(C)C)cc3)s1)C2 (stereo not given) | -3% | -5%
SMILES | HTT prom inh | PMP22 txn
COc1ccc(-c2cc(C)no2)cc1S(=O)(=O)N1CCN(c2cccc(C)c2)C(C)C1 (stereo not given) | ? | ?
CCC(=O)C1=C(c2ccc(F)cc2)N(C(=O)CC)n2cnnc2S1 | ? | ?
COc1ccccc1CCNC(=O)Cc1c(C)c2cc(Cl)c(O)cc2oc1=O | -7% | -10%
COc1ccc(NC(=O)CSc2nc3ccccc3nc2N2CCCCC2)cc1 | -11% | -19%
Cc1ccc(CN2C(=O)c3ccccc3Sc3ccc(C(=O)NCCCN4CCOCC4)cc32)cc1 | -23% | ?
CC1CCN(S(=O)(=O)c2ccc3c(c2)N(CC(=O)NCc2ccccc2)C(=O)CO3)CC1 | -19% | -22%
CCc1nc2ccc(C(=O)NCCc3ccc(OC)cc3OC)cc2nc1CC | ? | ?
COc1ccccc1CNC(=O)CN1C(=O)COc2ccc(S(=O)(=O)N3CCC(C)CC3)cc21 | -3% | -26%
Cc1ccc(NC(=O)c2c(NC(=O)c3ccccc3)sc3c2CCC3)cc1 | 20% | -3%
Cc1cccc(OCC(=O)Nc2ccc(S(=O)(=O)N(Cc3ccccc3)c3ccccc3)cc2)c1 | 4%[11.5 µM] | 3%
CCN1CCOC(=O)C1CC(=O)Nc1ccc(Br)cc1 (stereo not given) | -11% | ?
COC(=O)c1scc(-c2ccccc2)c1S(=O)(=O)Nc1cccc(C)c1C | -23% | ?
CCN(CC)C(=O)c1ccc(O)c(OC)c1 | -2% | .
CCOc1ccc(CNC(=O)c2ccc(Sc3ccc(Cl)cc3)c(NC(C)=O)c2)cc1 | ? | ?
CCOc1cccc(C(=O)Nc2ccc3oc(-c4ccc(C(C)(C)C)cc4)nc3c2)c1 | ? | -62%
O=S(=O)(c1ccccc1)c1nnn2c1nc(NCc1ccccc1)c1cc(Cl)ccc12 | -11% | -8%
O=C(Nc1sc2c(c1C(=O)NCc1ccccc1)CCCC2)c1cc(=O)c2cc(Cl)ccc2o1 | 19% | -7%
CCc1ccccc1Nc1cc(C(=O)NCCc2ccccc2)c2ccccc2n1 | -13% | -44%
COc1ccc(CN(Cc2ccco2)C(=O)COc2ccccc2Cl)cc1 | ? | -16%
COc1ccc(-n2nc(C(=O)Nc3cccc(Cl)c3)c3c4ccccc4n(C)c3c2=O)cc1Cl | -2% | -5%
CCC(C)NC(=O)Cn1c(=O)n(-c2ccc(C)c(C)c2)c(=O)c2c3c(sc21)CCCCC3 (stereo not given) | -11% | -3%
O=C1Nc2cc(Cl)ccc2Oc2ccccc21 | -6% | .
CCOC(=O)c1cccc(NC(=O)CCn2nc(C)c(S(=O)(=O)N3CCCCC3)c2C)c1 | ? | -5%
Cc1cc2nc(-c3cccc(NC(=O)C(C)C)c3C)oc2cc1C | 18% | -1%
COc1ccc(OC)c(-c2nnc3n(CCc4ccccc4)c(=O)c4ccccc4n23)c1 | 43%[activator] | ?

Of the compounds above, these contain two or more sulfur atoms:
SMILES | HTT prom inh | PMP22 txn
Cc1cccc(C)c1NC(=O)CSc1ncc2c(n1)-c1ccc(Cl)cc1N(Cc1ccccc1)S2(=O)=O | ? | ?
Cc1ccc(NC(=O)CN2CCSc3ccc(S(=O)(=O)N4CCCC4)cc32)cc1C | ? | ?
COC(=O)c1scc(-c2ccccc2)c1S(=O)(=O)Nc1cccc(C)c1C | -23% | ?

Next part
SMILES | HTT prom inh | PMP22 txn
CNc1c(NC(=O)c2ccc(OC)c(OC)c2)c(=O)oc2ccccc12 | 6% | 7%
CCC1CCCCN1C(=O)CSc1nc(-c2ccc(OC)c(OC)c2)cc(C(F)(F)F)n1 (stereo not given) | ? | ?
CCOc1ccc(C2c3c(-c4ccccc4O)n[nH]c3C(=O)N2Cc2cccnc2)cc1OC (stereo not given) | -9% | -16%
CCCN(C(=O)Cn1nc(Cc2cccnc2)c2ccccc2c1=O)c1ccc(C(C)C)cc1 | ? | ?
CC(=O)c1ccc(NC(=O)c2ccc3c(c2)nnn3C2CCCC2)cc1 | -14% | 0%
CCCN(CCC)CCNC(=O)c1cc2c(-c3ccc(Cl)cc3)nn(C)c2s1 | -18% | ?
COc1ccc(C2=NC(c3ccncc3)=Nc3ccc(OC)cc3N2)cc1 | -8% | -5%
O=c1c2ccccc2n(Cc2ccccc2F)c(=O)n1-c1cccc(F)c1 | -24% | ?
Cc1ccc(C)c(N2CCN(Cc3csc(C)c3C)CC2)c1 | -22% | -38%
O=C(OCc1cc(=O)n2nc(C3CCCCC3)sc2n1)c1ccccc1Cl | -1% | -95%
C=Cc1ccc(CN2C(=O)N(c3cccc(Cl)c3)S(=O)(=O)c3ccccc32)cc1 | -24% | -13%
CC1CCN(CCCNC(=O)c2cn(C)c3ccc(S(=O)(=O)N(C)C4CCCCC4)cc3c2=O)CC1 | -4%[11.5 µM] | 2%
Cc1cccc(NC(=O)C2CCCN2S(=O)(=O)c2cccc3nsnc23)c1C (stereo not given) | ? | 10%
Cc1ccc(OCC(=O)OCc2cc(=O)n3nc(C4CCCCC4)sc3n2)cc1C | -27% | ?
CCCN(C(=O)c1cc2c(Cl)nc3ccccc3c2s1)c1cccc(C)c1 | -18% | ?
Cc1ccc(-c2nnc(Nc3ccccc3O)c3ccccc23)cc1 | -26% | ?
Cc1ccc2nc(-c3ccccn3)c(Nc3ccc(F)cc3)n2c1 | ? | ?
Cc1ccc(NC(=O)c2nc(S(C)(=O)=O)ncc2N(Cc2ccccc2)Cc2ccco2)c(C)c1 | -24% | 23%
O=C(CN1C(=O)COc2ccc(S(=O)(=O)N3CCCCCC3)cc21)N1CCN(c2cccc(C(F)(F)F)c2)CC1 | ? | ?
Cc1ccc(S(=O)(=O)c2nc(-c3ccco3)oc2SCc2ccccc2Cl)cc1 | ? | ?
Cc1ccc(S(=O)(=O)N2CCC(n3c(C)nc4cccnc43)CC2)c(C)c1 | ? | ?
CC(=O)c1ccc(NC(=O)C2CCN(S(=O)(=O)c3ccc4c(c3)CCCN4C(=O)C3CCC3)CC2)cc1 | -7% | 10%
COc1ccc(CNC(=O)Cc2c(C)c3c(cc(C)c4c(C)coc43)oc2=O)cc1OC | 1% | -2%

Complete entries as entered above. Order of values: HTT prom inh | PMP22 txn
Results for CCC(C)NC(=O)Cn1c(=O)n(-c2ccc(C)c(C)c2)c(=O)c2c3c(sc21)CCCCC3 (stereo not given) = -11% | -3%
Results for Cc1cccc(OCC(=O)Nc2ccc(S(=O)(=O)N(Cc3ccccc3)c3ccccc3)cc2)c1 = 4%[11.5 µM] | 3%
Results for CCCCC(CC)CNC(=O)Cc1ccc(-n2c(=O)[nH]c3ccccc3c2=O)cc1 (stereo not given) = ? | 3%
Results for Cc1ccc(OCC(=O)OCc2cc(=O)n3nc(C4CCCCC4)sc3n2)cc1C = -27% | ?
Results for CC(=O)c1ccc(NC(=O)CN2C(=O)CN(C)C(=O)c3ccccc32)cc1 = 7% | -7%

High-throughput results deposited in PubChem BioAssay by National Center for Advancing Translational Sciences (NCATS).
